# miR-21 reporter = qHTS Assay for Modulators of miRNAs and/orActivators of miR-21 | HeLa miR-21 FLuc reporter, luciferase, 48 h | Potency, µM (doses to about 38.3 µM), inactives show at the highest dose reporter change, positive = more light | 340,000 tested, under 10 active | AID 2288, 2010; active = well fitted rising curve with a large enough effect; inconclusive = small, poorly fitted or top-dose-only effect; inactive = no such curve, though single readings can be large or run the other way;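 further: % of control where 0% means no effect; miR-21 action dims this reporter so a rising signal means less miR-21 action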
#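 HeLa miR-21-FLuc reporter line, endogenous miR-21; 2000 cells/well in DMEM/10% FBS; compound titration up to ~40uM final, 48 h, 37 degree Celsius; luciferase detection reagent, 15 min lysis, CCD luminescence.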
# Rango dissoc inh = qHTS Assay for Inhibitors of RanGTP induced Rango (Ran-regulated importin-beta cargo) - Importin beta complex dissociation | Snurportin-1 (Homo sapiens) + GTP-binding nuclear protein Ran (Homo sapiens) + Importin … | Biochemical FRET Rango-importin beta, RanGTP-induced dissociation | Potency, µM (doses to about 46.1 µM), for the others: at the top dose activity change, negative = inhibition | actives 0.071% (n = 340,000) | AID 540253, 2011; active means falling FRET ratio curve, often poorly fitted, with flat reads before Ran was added; inconclusive means other falling curves, or compound fluorescence or quenching; inactive means flat or rising ratio curve;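 further: potency means the concentration at half of the fitted maximal effect; % of control where 0% means no effect; nearly all actives have a fitted effect of over 45% in size; -100% = wells without RanGTP and RCC1; the record marks most hits as doubtful in a second field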
#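 Compounds preincubate 5 min with complex of recombinant Rango and importin beta in PBS with 1 mM DTT. Ran (0.6 uM) loaded with 2 mM GTP plus 0.2 uM RCC1 starts dissociation; FRET is recorded 45 min later.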
# GLA inh pH 4.5 = qHTS Assay for Inhibitors of Human alpha-Galactosidase at pH 4.5; Alpha-galactosidase A (Homo sapiens), P06280; purified enzyme, 4-MU-alpha-Gal fluorescence, pH 4.5; activity change, negative = inhibition, % at 105 µM; 230,000 tested, under 10 active; AID 1467, 2008; inconclusive = small, poorly fitted or top-dose-only inhibition, or a rising curve; inactive = flat fitted curve, though single readings scatter; no compound was filed as active;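 further: 0% = full activity with enzyme and -100% = basal without enzyme; dose as in the result columns while the protocol names 77 µM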
# Target sequence (P06280 whole entry, looked up): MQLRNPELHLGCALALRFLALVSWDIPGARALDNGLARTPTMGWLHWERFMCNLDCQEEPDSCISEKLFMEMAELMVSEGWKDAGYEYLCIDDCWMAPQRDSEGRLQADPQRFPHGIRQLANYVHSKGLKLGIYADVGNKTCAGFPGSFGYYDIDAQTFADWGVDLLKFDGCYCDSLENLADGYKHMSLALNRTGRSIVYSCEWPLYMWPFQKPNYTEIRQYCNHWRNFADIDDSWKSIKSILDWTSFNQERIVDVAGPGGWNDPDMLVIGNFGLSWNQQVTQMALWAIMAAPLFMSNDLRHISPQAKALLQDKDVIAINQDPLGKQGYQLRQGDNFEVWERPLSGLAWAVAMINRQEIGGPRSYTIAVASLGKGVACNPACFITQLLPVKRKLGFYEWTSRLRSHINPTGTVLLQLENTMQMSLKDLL
# Rango complex inh = qHTS Assay for Inhibitors of Rango (Ran-regulated importin-beta cargo) - Importin beta complex formation | Importin subunit beta-1 (Homo sapiens), Q14974 | Rango CFP/YFP FRET sensor + importin beta, 45 min | Potency, µM (titrated, usually from 92.2 µM), without a hit: top-dose inhibition of complex formation | actives 0.031% (n = 340,000) | AID 540263, 2011; active = rising FRET ratio curve, often small or poorly fitted; inconclusive = mostly compound fluorescence or quenching in the first reads; inactive = flat curves in all reads;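 further: potency means the concentration at half of the fitted maximal effect; 0% = DMSO wells and 100% = buffer wells lacking importin beta; nearly all actives have a fitted effect of over 15% in size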
#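 FRET biosensor (snurportin 1 IBB flanked by EYFP and cerulean), 50 nM, with compound 5 min, then 0.125 microM importin beta in PBS, 1 mM DTT, 0.02% Tween-20, 0.1% BSA. CFP/YFP ratio read after 45 min at room temperature; pre-read flags interference.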
# * marks the source's active call; other numbers are inactive results; ? = inconclusive; / = not tested or not shown; & = joins results of further samples; [ ] = dose if it differs, or a comment. A portion of the library. The share of hits here may be higher or lower than overall.
SMILES	miR-21 reporter	GLA inh pH 4.5	Rango complex inh	Rango dissoc inh
CCN(CCCNC(=O)C1CCCN(S(=O)(=O)CC)C1)c1cccc(C)c1 (stereo unspecified)	2%	-20	1.8%	3%
COc1ccccc1-c1ccc(SCC(=O)N2CCOCC2)nn1	2%	-4	-1.8%	6%
CC(C)OC(=O)c1cccc(NC(=O)c2ccccc2)c1	-39%	0	2.0%	13%
CCOc1ccc(NC(=O)CSc2nccn2Cc2ccco2)cc1	-29%&-49%	/	-0.8%	-2%
CC(=O)CC1OC(=O)C(Br)=C1NCc1ccccc1 (stereo unspecified)	?	-19	-1.2%	-4%
COc1ccccc1-c1nnc(SCC(=O)OC(C)C)o1	-5%	8	-4.0%	-5%
CCOC(=O)c1[nH]c(C)c(C(=O)OCC(=O)N(CC)C2CCS(=O)(=O)C2)c1C (stereo unspecified)	-1%	7	0.0%	-4%
Cc1ccc(N(C(C)C(=O)Nc2cccc(N(C)S(C)(=O)=O)c2)S(C)(=O)=O)cc1 (stereo unspecified)	6%	-1	4.0%	2%
Cc1cc(SCC(=O)Nc2ccc(O)cc2)n2nc(C)c(-c3ccccc3)c2n1	11%	0	-1.2%	-1%
Cc1ccc(-c2nc(CS(=O)CC(=O)NC3CC3)c(C)o2)cc1 (stereo unspecified)	-3%	/	-0.4%	1%
O=C(NCCc1nc(-c2ccccc2Cl)no1)c1ccccc1	/	/	0.1%	-6%
CN(C)S(=O)(=O)c1ccc(C(=O)Nc2nc(-c3ccccc3)c(C(=O)c3ccccc3)s2)cc1	12%	11	?	-13%
COc1cc(NC(=O)Cn2cnc(S(=O)(=O)N3CCCCC3)c2)cc(OC)c1OC	-1%	/	-3.1%	1%
COC(=O)c1ccc(C(=O)OC)c(NC(=O)COC(=O)c2ccc(OC)c(OC)c2OC)c1	1%	6	-0.8%	18%
Cc1cccc(C)c1N(CC(O)Cn1c2ccccc2c2ccccc21)S(C)(=O)=O (stereo unspecified)	20%	-6	-3.2%	-6%
Cc1ccc(C(=O)NCCNC(=O)c2ccc(F)cc2)cn1	9%	/	-1.6%	5%
NNC(=O)Cn1c(-c2ccccc2)cc2ccccc21	0%	/	1.8%	13%
O=[N+]([O-])c1ccc(Cl)c(CN2CCC(O)CC2)c1	-4%	1	-1.8%	-10%
CCCn1c(NC(=O)c2ccco2)nc2ccccc21	5%	-1	0.1%	6%
CN(C)c1nc(N(C)C)nc(N(C#N)CCOc2ccccc2)n1	-5%	-25	-0.9%	-7%
COc1ccc(NC(=O)[C@@H](NC(N)=O)C(C)C)cc1Cl	-1%	1	2.2%	?
c1ccc2cc(C3CCCCC3)ncc2c1	/	/	-0.9%	5%
CCOC(=O)N1CCN(S(=O)(=O)c2cc(Br)cc3c2N(C(=O)C2CC2)CC3)CC1	-7%	-7	4.1%	-12%
Cn1c(CCNC(=O)c2ccccc2)nc2cc(NC(=O)C3CCCCC3)ccc21	-1%	-6	4.2%	11%
Cn1c(CNC(=O)CNC(=O)c2ccccc2F)cc(=O)n(C)c1=O	0%	/	-5.0%	6%
CC(C)(C)C(=O)N1CCN(C(=O)c2ccco2)CC1	9%	/	4.3%	?
O=S(=O)(NC1CC1)c1cccc(S(=O)(=O)N2CCCC2)c1	-2%	0	0.5%	1%
CCn1cc(C(=O)OCc2cccc(Br)c2)c(=O)c2ccc(C)nc21	-5%	4	-0.4%	-12%
COc1ccccc1/C=C/C(=O)OCC(=O)NC1CCS(=O)(=O)C1 (stereo unspecified)	/	/	-3.1%	7%
COc1ccc(S(=O)(=O)N2CCC(C(=O)Nc3ccccc3C)CC2)c2cccnc12	4%	-2	-0.8%	8%
Cc1ccc(C)c(S(=O)(=O)N2CCN(c3ncnc4sccc34)CC2)c1	/	/	?	2%
O=C(N[C@H]1C/C=C\C[C@@H](CC(=O)N(CCO)Cc2ccccc2)C(=O)NC[C@H](c2ccccc2)OC1=O)OCC1c2ccccc2-c2ccccc21	/	/	2.0%	35%
CC(=O)Nc1cccc(C(=O)N(CCc2ccccc2)Cc2ccccc2)c1	1%	/	0.4%	-2%
CNC(=O)c1[nH]cnc1C(=O)N[C@@H](CC(C)C)C(=O)OC(C)(C)C	4%	4	-3.4%	-10%
COc1cc(CN2CC(=O)N(c3ccccc3Cl)C2=S)cc(OC)c1OC	17%	/	-2.1%	12%
Nn1c(SCC(=O)Nc2cccc(S(N)(=O)=O)c2)nnc1C1CC1	0%	-4	-0.4%	-8%
COc1ccc(-n2c(C)c(C(C)=O)c(C(C)=O)c2C)cc1OC	-6%	-4	-0.7%	2%
COc1cccc(CNCC(=O)N2C(C)CCCC2C)c1 (stereo unspecified)	-5%	-9	5.5%	7%
CC(=O)Nc1cccc(NC(=O)CSc2nnc(Cc3cccn3C)n2CCc2ccccc2)c1	1%	-12	0.0%	-8%
CN(C(=O)c1cccc(NC(=O)Cc2ccc(NC(=O)C3CCN(C(=O)c4ccccc4)CC3)cc2)c1)C1CCC1	/	/	5.7%	-12%
Cc1c(N=C(N)/N=C(\N)Nc2ccccc2)c(=O)n(-c2ccccc2)n1C	-2%	1	-0.1%	1%
COc1ccc2sc(N(CCCN(C)C)C(=O)c3ccc(S(=O)(=O)N(C)Cc4ccccc4)cc3)nc2c1	/	/	-1.6%	0%
O=C(COC(=O)CNC(=O)c1ccccc1F)Nc1cccnc1Cl	0%	6	0.2%	6%
CCOC(=O)C1=C(CC)Nc2ccccc2N=C1N	0%	-1	?	-5%
CCOc1ccc(C(=O)NC2CCN(CC(=O)NCc3ccccc3)CC2)cc1	-3%	/	-4.2%	-20%
Cn1nc(C(=O)NCC2CCCO2)c2ccccc2c1=O (stereo unspecified)	-5%	-5	-1.7%	0%
O=C(CNC(=O)C1CCCCC1)OCc1cc(=O)oc2ccc3ccccc3c12	-4%	20	-1.1%	1%
COc1ccc(Cl)cc1N(CC(=O)Nc1ccccc1C(=O)N1CCOCC1)S(C)(=O)=O	0%	/	2.1%	31%
CC(C)(C)C1CCC(OC(=O)c2ccncc2)CC1 (stereo unspecified)	-17%	-3	-4.6%	-9%
CC(=NCc1ccco1)c1c(O)n(C2CCCCC2)c(=O)[nH]c1=O	-7%	-7	0.6%	-11%
COc1ccc(C(=O)NCc2nnc(SCC(=O)Nc3nc4ccc(C)cc4s3)o2)cc1OC	-20%	-1	-4.5%	11%
O=c1[nH]c2ccccc2nc1C(Cl)c1ccccc1 (stereo unspecified)	-14%	-3	/	/
Cc1ccc2nc(SCC(=O)Nc3ccccc3F)nc(=O)n2c1	/	/	4.5%	-10%
O=C(N/N=C/C=C/c1ccccc1)c1n[nH]c2c1CCC2	2%	3	0.0%	-4%
Cc1cc2c(C)nc(N/N=C/c3ccccc3)nc2o1	-51%	0	2.8%	-8%
CCOC(=O)CCCSc1nnc(CCCCCN2C(=O)c3cccc4cccc(c34)C2=O)o1	-3%	6	-2.3%	2%
CN(C)S(=O)(=O)N(CC(=O)Nc1ccccc1C(F)(F)F)c1ccccc1	-5%	-1	/	/
O=C(CCl)Nc1ccccc1Sc1ccc(Cl)cc1	?	3	-2.0%	-1%
COc1ccc(N(CC(=O)NCc2ccco2)S(C)(=O)=O)cc1	-7%	0	0.3%	6%
CC(C)(C)CN1CCN(Cc2c[nH]c3ccccc23)CC1CCO (stereo unspecified)	8%	/	0.3%	-17%

# Going on with the list.
SMILES	miR-21 reporter	GLA inh pH 4.5	Rango complex inh	Rango dissoc inh
Cc1c(C(c2cccc([N+](=O)[O-])c2O)c2c(C)n(C)n(-c3ccccc3)c2=O)c(=O)n(-c2ccccc2)n1C	-1%	4	3.7%	-10%
Cc1nc(CNS(=O)(=O)c2cccs2)cs1	2%	-3	0.0%	0%
CCOC(=O)c1c(NC(=O)Cc2cccs2)sc2c1CCCC2	-6%	-4	-0.6%	15%
COc1ccc(CNC(=O)C2CCCN2S(=O)(=O)c2ccc(F)cc2)cc1 (stereo unspecified)	-2%	-1	3.7%	-12%
COc1cc(CC(=O)Nc2sccc2C(N)=O)cc(OC)c1OC	-2%	2	-0.3%	-11%
O=C(CCC(=O)N(CC(=O)NC1CCCCC1)c1ccc2c(c1)OCO2)Nc1ccccn1	-16%	-2	-5.7%	22%
COc1ccc(/C(O)=C2\C(=O)C(=O)N(CCN3CCOCC3)C2c2ccccc2OC)cc1 (stereo unspecified)	-5%	-9	-1.8%	11%
O=C(CNC(=O)c1ccccc1)Nc1ccsc1C(=O)O	-2%	-1	0.2%	10%
COc1ccc(C(=O)OCC(=O)NC(C)(C)C)cc1[N+](=O)[O-]	-2%	3	-0.9%	13%
COc1cccc(Nc2nc(N)nc(C(F)(F)F)n2)c1	-82%	6	-1.0%	17%
O=C(COC(=O)c1ccc2c(c1)OCO2)Nc1ncc(Cl)cc1Cl	0%	0	-0.2%	-9%
CCc1cc2ccc(C)c(C)c2nc1SCC(=O)NNC(=O)c1ccco1	-7%	/	-4.5%	-5%
O=C(c1cc(Cl)nc2ccccc12)N(Cc1nnc(-c2ccc(Cl)cc2)o1)C1CC1	/	/	-2.1%	-5%
CCOC1=C/C(=C/c2c(N)n3oc(C)cc3nc2=O)C=CC1=O	9%	-6[21.1 µM]	/	/
CC(=O)N1CCN(c2ccc(NC(=O)c3ccc(C)cc3)cc2)CC1	-15%	9	-1.7%	7%
O=C(Cn1ccc2cc(S(=O)(=O)N3CCCC3)ccc21)NCCc1ccccc1	1%	/	-3.5%	18%
Cc1ccc(OCCNC(=O)c2cccc(S(=O)(=O)N3CCN(C)CC3)c2)cc1	/	/	-3.5%	13%
CN(C)CC1CCCCC1OC(=O)c1ccc(Br)cc1 (stereo unspecified)	-3%	8	6.5%	-20%
CCS(=O)(=O)N1N=C(c2cccs2)CC1c1cc2cc(C)ccc2nc1Cl (stereo unspecified)	-57%	-6	?	?
Cc1cc(N2CCOCC2)nc(NCc2ccccc2)n1	2%	0	-4.3%	14%
CC(C)(C)c1ccc(C(=O)O)c(C(=O)c2ccc(C(=O)O)cc2)c1	0%	-2	0.8%	2%
Cc1nn(CCO)c2ncc(C(=O)c3cc(Cl)ccc3O)cc12	-3%	/	6.8%	20%
O=S(=O)(c1ccccc1)N(CC(O)CN1CCOCC1)c1ccccc1 (stereo unspecified)	0%	/	7.3%	26%
O=C(O)Cc1ccc(-c2ccccc2)cc1	-4%	-2&-7	2.5%	0%
COc1ccc(-n2nnc3c(SC(C(C)=O)C(=O)N(C)C)ncnc32)cc1 (stereo unspecified)	-7%	/	2.6%	-7%
O=[N+]([O-])c1ccc(/C=N\N2CCN(c3ccc(Cl)cc3)CC2)cc1	-1%	0	-2.1%	9%
Cc1ccc(NC(=O)CN(C)CC(=O)Nc2ccccc2-c2ccccc2)cc1	1%	3	0.5%	-9%
O=C(c1cc2cc(Cl)cc(Cl)c2oc1=O)N1CCOCC1	-6%	-5	?	?
CCOc1ncccc1C(=O)OCC(=O)Nc1ccc2c(c1)CCC2	/	/	-0.6%	13%
CCS(=O)(=O)c1ccc(NC(=O)c2ccccc2Cl)c(O)c1	-13%	4	2.7%	-2%
Cc1ccc(NC(=O)C2=CN3CCS(=O)(=O)N=C3C=C2)cc1	/	/	1.0%	-13%

# Source: PubChem (National Center for Advancing Translational Sciences (NCATS))
